Menin-MLL FL inh = inhibitors of human menin-MLL interaction, wild-type MLL peptide | Fluorescence polarization, fluorescein-MLL peptide displacement from menin | FP activity change, % at 61.4 µM | 290,000 tested, under 10 active; inconclusive = falling polarisation curve, or a change in total fluorescence; inactive = total fluorescence flat and polarisation flat or rising; no compound was filed as active; the % refers to the polarisation; negative = inhibition;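 also: % of control where 0% means no effect; inhibitors lower the polarisation; unlabelled MLL peptide was the positive control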
D2 potentiator = human D2 receptor positive allosteric modulation; P14416; DiscoveRx D2 beta-arrestin cells, luminescence, 90 min; 100% = 57 uM dopamine signal; potentiation, % (concentration not given with the values); actives 0.23% (n = 360,000); AID 624464; active = potentiation of 50% or more; inconclusive = 30% to 50%; inactive = 30% or less;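 also: compound concentration not given in the record; tested on top of an EC20 dose of dopamine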
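D2 cells co-treated with compound plus 50 nM dopamine (EC20) for 90 min at 37 deg C to detect potentiation. Beta-arrestin recruitment was read as enzyme-fragment luminescence after 1 h at ambient temperature. Full response was set by 57 uM dopamine.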
TRPV1 potentiator = enhances activation of the human vanilloid receptor TRPV1 | TRPV1-expressing cells, Fluo-8 calcium influx, capsaicin EC20 potentiation; host cell line not named in the record; control for the full effect not named in the record | potentiation, % at 8.33 µM | actives 0.02% (n = 320,000); active means potentiation above 80%; inconclusive means 30% to 80%; inactive means below 30%; also: 0% is about no effect
Target sequence (Q8NER1 whole entry, looked up): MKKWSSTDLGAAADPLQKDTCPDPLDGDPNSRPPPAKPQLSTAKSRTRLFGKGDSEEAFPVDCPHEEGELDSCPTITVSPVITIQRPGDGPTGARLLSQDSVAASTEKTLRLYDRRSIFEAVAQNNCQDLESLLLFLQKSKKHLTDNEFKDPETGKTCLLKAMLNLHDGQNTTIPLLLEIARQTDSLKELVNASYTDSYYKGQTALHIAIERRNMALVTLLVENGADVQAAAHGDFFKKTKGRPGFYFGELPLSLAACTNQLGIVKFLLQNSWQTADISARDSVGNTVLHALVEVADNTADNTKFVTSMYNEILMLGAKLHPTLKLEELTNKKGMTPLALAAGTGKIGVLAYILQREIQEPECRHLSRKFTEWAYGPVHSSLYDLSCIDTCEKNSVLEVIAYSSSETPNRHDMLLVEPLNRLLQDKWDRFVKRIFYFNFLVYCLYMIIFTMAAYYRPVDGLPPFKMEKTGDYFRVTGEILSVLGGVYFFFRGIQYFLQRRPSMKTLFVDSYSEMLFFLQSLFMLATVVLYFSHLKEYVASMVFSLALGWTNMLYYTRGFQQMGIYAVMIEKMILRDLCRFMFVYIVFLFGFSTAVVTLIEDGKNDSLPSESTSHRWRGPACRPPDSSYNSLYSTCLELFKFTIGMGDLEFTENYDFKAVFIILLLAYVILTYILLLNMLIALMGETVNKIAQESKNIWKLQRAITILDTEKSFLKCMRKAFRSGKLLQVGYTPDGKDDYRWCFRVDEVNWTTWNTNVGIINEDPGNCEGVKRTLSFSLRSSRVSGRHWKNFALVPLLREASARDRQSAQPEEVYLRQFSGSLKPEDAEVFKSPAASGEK
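Fluo-8 calcium influx in TRPV1-expressing cells, kinetic read (ex 480/em 520 nm). Compound added and read 3 min for agonist activity, followed by capsaicin at EC20 final and 2 min further read for enhancement.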
gsp antagonist = antagonizes gsp, the McCune-Albright syndrome mutation. gsp-mutant cells, cAMP HTRF, 30 min; control for the full effect not named in the record. actives 0.4% (n = 340,000). Potency, µM (titrated, usually from 76.9 µM), for inactives: top-dose activity change, negative = inhibition, actives largely listed as inhibitors; active = falling curve of any shape with a large fitted effect; inconclusive = falling curve, mostly with a smaller effect; inactive = flat or rising curve; cell line not stated here;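 also: intracellular cAMP measured with PDE inhibitor Ro 20-1724 present during compound exposure; potency is read from the fitted curve at half-maximal effect; % is scaled to controls: 0 for no effect and ±100 for the full control effect; nearly all actives have a fitted effect of over 65% in size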
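HTRF cAMP measurement after 30 min RT detection following 30 min, 37C compound treatment alongside […] (added as 300 uM solution) in G418-selected cells seeded at 2000/well and grown 16–24 h.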
Sfp PPTase inh = inhibitors of Bacillus subtilis Sfp phosphopantetheinyl transferase; Biochemical Sfp PPTase activity, qHTS; Q9F4F7; Potency, µM, without a hit: max response, negative = inhibition, usual class: inhibitors; AID 1490; actives 3.5% (n = 310,000); active = well fitted inhibition curve with a large enough effect; inconclusive = small, poorly fitted or top-dose-only effect, or another doubt; inactive = no such curve, though single readings can be large or run the other way;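 also: the enzyme is Sfp with the accession as filed and its product quenches rhodamine fluorescence; potency is read from the fitted curve at half-maximal effect; 0% = enzyme reaction without inhibitor and -100% = no enzyme wells; top concentration of the series not given in the record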
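After 15 min at room temperature with compound, 15 nM Sfp received 5 uM rhodamine-CoA plus 12.5 uM BHQ-2-ybbR (50 mM Hepes pH 7.6, 10 mM MgCl2). Rate came from the fluorescence difference over 30 min, ex 525/em 598 nm.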
gsp agonist = agonists of gsp mutant (McCune-Albright syndrome) | gsp mutant cells, cAMP HTRF, 30 min; control for the full effect not named in the record | Potency, µM (highest dose often 76.9 µM), inactives show at the top dose activation (cAMP increase), hits mostly activators | actives 0.13% (n = 340,000) | AID 624287; active = well fitted activation curve with a large enough effect; inconclusive = small, poorly fitted or top-dose-only effect, or another doubt; inactive = no such curve, though single readings can be large or run the other way; cell line not stated here;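 also: phosphodiesterase inhibitor Ro 20-1724 added with compounds to block cAMP breakdown; potency is read from the fitted curve at half-maximal effect; nearly all actives have a fitted effect of over 60% in size; about a fifth of the inactives were tested at one dose only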
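Cells stably selected in G418 were plated at 2000/well, grown 16-24 hr, then given compounds in DMSO with the PDE inhibitor […] (300 uM solution added) for 30 min at 37C; cAMP was read by HTRF.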
ClpP mod = qHTS Assay for Activators of ClpP. ATP-dependent Clp protease proteolytic subunit (Bacillus subtilis (strain 168)), P80244. purified B. subtilis ClpP, FRET peptide cleavage, 20 min. Potency, µM (titrated, usually from 57.5 µM), inactives show top-dose activity change, negative = active. actives 1.9% (n = 340,000); active = well fitted falling curve with a large enough effect; inconclusive = small, poorly fitted or top-dose-only effect; inactive = no such curve, though single readings can be large or run the other way; also: potency is read from the fitted curve at half-maximal effect; the source files actives as falling curves though it sought activators and does not explain the sign; nearly all actives have a fitted effect of over 65% in size; many hits overshoot -100%
Target sequence (P80244 whole entry, looked up): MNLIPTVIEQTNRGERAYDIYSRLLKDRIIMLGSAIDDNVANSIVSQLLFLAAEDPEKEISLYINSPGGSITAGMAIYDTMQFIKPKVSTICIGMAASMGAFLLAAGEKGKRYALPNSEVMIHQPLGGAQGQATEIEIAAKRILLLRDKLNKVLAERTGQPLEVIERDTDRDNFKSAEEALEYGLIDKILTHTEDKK
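FRET quenching reversal measured ClpP activation: 10 microg/mL B. subtilis ClpP at pH 8 with the FRET-FV decapeptide, read at 430 nm after 320 nm excitation. The 20-min minus 0-min signal was scaled between DMSO/no-enzyme wells and ADEP (5.8 microM final).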
The depositor's hits bear a star; ? = inconclusive; . = no result given; [ ] = dose if it differs, or a comment.

| smiles | Menin-MLL FL inh | D2 potentiator | TRPV1 potentiator | gsp antagonist | Sfp PPTase inh | gsp agonist | ClpP mod |
| --- | --- | --- | --- | --- | --- | --- | --- |
| Cc1ccc(NC(=O)N2CCN(c3ncccc3C(F)(F)F)CC2)cc1 | 7.8 | -28 | -11 | -11% | 5% | 21% | -6.8% |
| COc1ccc(NC(=O)n2ncc3c(C)cccc32)cc1 | 8.1 | -8 | -18 | -2% | -5% | ? | -5.2% |
| CCO[C@@H]1OC(C(=O)N2CCOCC2)=C[C@H](c2cn(C(C)=O)c3ccccc23)[C@H]1CCCO | -0.6 | -24 | -16 | -5% | -1% | . | -1.8% |
| CCOC(=O)N1CCN(C(=O)COC(=O)c2ccccc2NCCO)CC1 | . | 19 | 0 | 5% | . | 11% | 7.9µM* |
| Cc1ccc(C2/C(=C(\O)c3ccc4c(c3)OCCO4)C(=O)C(=O)N2CC2CCCO2)cc1 (stereo not given) | . | -11 | 3 | 3% | 1% | 7%[15.4 µM] | -2.5% |
| CC(C)(C)[C@H]1C=C(C(=O)N2CCOCC2)O[C@@H](OCc2ccc(CO)cc2)C1 | -0.7 | -5 | ? | 3% | 22% | ? | -0.8% |
| Cc1ccc(CNC(=O)CSc2nc3c(sc4ccccc43)c(=O)n2CCCN2CCCC2)cc1 | -0.6 | -16 | 13 | 3% | -10% | 0%[15.4 µM] | . |
| CCCN(CCC)C(=O)Cn1c(=O)n(CCC(=O)NCCc2ccccc2)c(=O)c2ccccc21 | -0.9 | -1 | 12 | -2% | 4% | -19% | -8.0% |

(continued)
| smiles | Menin-MLL FL inh | D2 potentiator | TRPV1 potentiator | gsp antagonist | Sfp PPTase inh | gsp agonist | ClpP mod |
| --- | --- | --- | --- | --- | --- | --- | --- |
| COc1cc(OC)c(OC)cc1/C=N/n1c(-c2n[nH]c3c2CCC3)n[nH]c1=S | -4.5 | -8 | . | -10% | 22µM* | 25% | 17% |
| COc1ccc(C2C(C(C)=O)=C(O)C(=O)N2c2ccc(O)cc2)cc1 (stereo not given) | -1.7 | -5 | 16 | 7% | -2% | -16% | . |
| COc1cccc(CN(Cc2ccco2)S(=O)(=O)c2ccc(S(=O)(=O)NCc3ccccc3)cc2)c1OC | 2.1 | -10 | 30 | -2% | 13% | -5% | -1.2% |
| O=C(C[C@H]1C/C=C\C[C@@H](Cc2ccc(F)cc2)C(=O)O[C@@H](c2ccccc2)CNC1=O)NCCO | . | -5 | . | 4% | . | -3% | -1.4% |
| COc1ccc(Cc2nc(-c3cccc(C)c3)no2)cc1 | 0.9 | -14 | -8 | -3% | -11% | 17% | 0.9% |
| Cc1ccc(CNC(=O)c2ccc[nH]2)cc1 | -1.9 | -7 | 2 | -9% | 9% | 13%[15.4 µM] | -0.6% |
| CN(C)c1ccc(S(=O)(=O)N2CCCCC2)cc1NC(=O)C1CSC2(C)CCC(=O)N12 (stereo not given) | . | -4 | -12 | -4% | . | 1% | -2.8% |
| O=S(=O)(c1cccs1)N1CN(Cc2ccco2)c2nc3ccccc3nc21 | ? | -2 | -3 | ? | ? | -10%[15.4 µM] | . |

Single records, as listed above. Order of screens: Menin-MLL FL inh	D2 potentiator	TRPV1 potentiator	gsp antagonist	Sfp PPTase inh	gsp agonist	ClpP mod
Record of COc1cc(OC)c(OC)cc1/C=N/n1c(-c2n[nH]c3c2CCC3)n[nH]c1=S = -4.5	-8	.	-10%	22µM*	25%	17%
Record of O=C(C[C@H]1C/C=C\C[C@@H](Cc2ccc(F)cc2)C(=O)O[C@@H](c2ccccc2)CNC1=O)NCCO = .	-5	.	4%	.	-3%	-1.4%
Record of COc1ccc(Cc2nc(-c3cccc(C)c3)no2)cc1 = 0.9	-14	-8	-3%	-11%	17%	0.9%

By substructure, the compounds so far with a halogen
| smiles | Menin-MLL FL inh | D2 potentiator | TRPV1 potentiator | gsp antagonist | Sfp PPTase inh | gsp agonist | ClpP mod |
| --- | --- | --- | --- | --- | --- | --- | --- |
| Cc1ccc(NC(=O)N2CCN(c3ncccc3C(F)(F)F)CC2)cc1 | 7.8 | -28 | -11 | -11% | 5% | 21% | -6.8% |
| O=C(C[C@H]1C/C=C\C[C@@H](Cc2ccc(F)cc2)C(=O)O[C@@H](c2ccccc2)CNC1=O)NCCO | . | -5 | . | 4% | . | -3% | -1.4% |

More structures.
| smiles | Menin-MLL FL inh | D2 potentiator | TRPV1 potentiator | gsp antagonist | Sfp PPTase inh | gsp agonist | ClpP mod |
| --- | --- | --- | --- | --- | --- | --- | --- |
| Fc1ccccc1NC(=S)NNc1ncc(C(F)(F)F)cc1Cl | 1.3 | -22 | -5 | -4% | 4% | 13%[15.4 µM] | -2.5% |
| Cc1[nH]c2ccccc2c1C(=O)COC(=O)CCS(=O)(=O)c1ccccc1Cl | 3.7 | -15 | 2 | -18% | -5% | -3% | -0.8% |
| COc1ccc(NC(=O)Nc2nnc(N3CCC(C)CC3)s2)cc1OC | 4.1 | -10 | -5 | 0% | 17% | -71%[inhibitor] | 1.0% |
| COc1cccc(N2CCN(C(=O)c3cc4c(s3)CCCCC4)CC2)c1 | . | -8 | -23 | -12% | . | 14% | -1.3% |
| Cc1cccc(-n2nnnc2SCC(=O)N(CC(C)C)c2c(N)n(CC(C)C)c(=O)[nH]c2=O)c1 | 3.2 | -1 | 2 | -1% | 7% | 0%[15.4 µM] | 0.3% |
| COc1ccc(-n2c(SCC(=O)Nc3cc(C)on3)nc3ccccc3c2=O)cc1Cl | 1.1 | -3 | 3 | -3% | ? | -13%[15.4 µM] | -4.6% |
| Cc1ccc(CSc2nn3c(=O)c(C)nnc3s2)cc1 | 2.1 | -21 | 9 | -3% | -3% | 15% | -1.8% |
| O=S(=O)(NN1CCOCC1)c1ccc(Br)s1 | . | -13 | 3 | 3% | -14% | -5% | -1.2% |

Carrying on:
Sequence of screens: Menin-MLL FL inh | D2 potentiator | TRPV1 potentiator | gsp antagonist | Sfp PPTase inh | gsp agonist | ClpP mod
COc1ccc(Oc2ccc(N/C=C3/CCCC3=O)cc2)cc1
 : 2.3 | -2 | 0 | -11% | -1% | -11%[15.4 µM] | -0.5%
NC(=O)NC(CC(=O)NCCc1ccccn1)c1ccccc1Cl (stereo not given)
 : -0.2 | -9 | ? | 16% | -1% | -9%[15.4 µM] | .
O=C(COC(=O)c1nc(Cl)ccc1Cl)c1ccc(Cl)s1
 : 5.2 | -9 | -18 | 3% | -14% | 47% | 0.4%
COc1ccc(C(C(=O)NC2CCCC2)N(Cc2cccnc2)C(=O)Cc2cccs2)c(OC)c1 (stereo not given)
 : -0.6 | -6 | 4 | -12% | 17% | 11%[15.4 µM] | .
Cc1no[n+]([O-])c1COc1ccc(/C=C(\C#N)C(N)=O)cc1
 : 1.8 | 2 | -15 | -8% | -5% | -82%[inhibitor] | -0.7%
Cc1c(OCC(=O)NCCCN2CCOCC2)ccc2c3c(c(=O)oc12)CCC3
 : . | -15 | 9 | 2% | 6% | ? | 3.7%
N=C1/C(=C\c2ccc(OC(=O)c3ccccc3Cl)cc2)C(=O)N=C2SC(N3CCOCC3)=NN12
 : . | -7 | -7 | -22% | -22% | 2% | -2.5%
COc1ccc2[nH]c(C)c(CCN(Cc3cccs3)C(=S)Nc3ccccc3)c2c1
 : ? | -1 | 25 | -12% | -2% | 1% | -10.0%
O=C(N/C(=C\c1ccc2c(c1)OCO2)C(=O)N1CCOCC1)c1cccs1
 : -2.6 | 2 | 0 | 10% | 18% | 23% | -2.0%
CCCn1cc(S(=O)(=O)c2ccccc2)c(=O)c2cc(F)c(N3CCN(C)CC3)cc21
 : 0.3 | -5 | 2 | -15% | 16% | 2% | 3.4%
COC(=O)C1=C(COc2ccccc2)NC(=O)NC1c1ccc(Cl)cc1 (stereo not given)
 : . | -6 | . | -11% | . | 11% | -0.4%
CC(=O)C1=C(C)N=c2s/c(=C/c3ccc4c(c3)OCO4)c(=O)n2C1c1ccc(N(C)C)cc1 (stereo not given)
 : . | 1 | . | -1% | . | 0% | -0.5%
CCOC(=O)c1c(N)sc(C(=O)N(CC)CC)c1C
 : -1.3 | -1 | 3 | -4% | 12% | -1% | .
Cn1cc(/C=N/NC(=O)c2ccc(C#N)cc2F)c2ccccc21
 : 0.5 | -13 | 7 | -9% | 17% | 5% | .
Cc1ccc(C2CC(c3ccccc3)n3ncnc3N2)cc1 (stereo not given)
 : 2.6 | -4 | -7 | ? | 7% | -11% | -0.5%
O=C(c1ccccc1OC(F)F)N1CCN(S(=O)(=O)c2ccc3c(c2)OCCCO3)CC1
 : . | -4 | -5 | -6% | . | 22% | -2.7%
Cc1ccccc1C(=O)Nc1ccc(C(=O)N/N=C/c2ccc(F)cc2)cc1
 : 0.1 | -6 | -16 | -8% | 12% | 5% | 0.6%
CC1CC(C)CN(C(=O)c2ccccc2Nc2ccc(SC(F)F)cc2)C1 (stereo not given)
 : 2.3 | -15 | -10 | -3% | -4% | -43%[inhibitor] | -5.1%
O=S(=O)(c1ccccc1C(F)(F)F)N1CCN(c2ncnc3sccc23)CC1
 : . | 1 | . | -28% | . | -3%[15.4 µM] | 1.6%
CC(C)CNC(=O)COc1ncnc2ccccc12
 : 3.1 | -1 | -49 | -9% | 5% | 5% | -2.2%
COc1ccc(CNC(=O)c2cccc(NC3=NC4CS(=O)(=O)CC4S3)c2)cc1 (stereo not given)
 : 0.3 | 3 | 14 | 10% | 14% | -19% | -0.6%
CC1(C)CC(=O)C2=C(C1)OC(N)=C(C#N)C2c1ccc2c(c1)OCO2 (stereo not given)
 : 1.1 | 6 | 2 | -15% | 0% | 1%[15.4 µM] | 0.0%
CC(OC(=O)c1cc(=O)[nH]c2ccccc12)c1ccccc1 (stereo not given)
 : 1.9 | -9 | 2 | 3% | 3% | -5% | -17%
CC(NC(=O)Cn1cccc1C(=O)c1ccccc1)c1ccccc1 (stereo not given)
 : -3.1 | -1 | 3 | 4% | 17% | 11% | 1.4%
CCCCn1c(N)c(N(CCOC)C(=O)C2CC(=O)N(c3cccc(SC)c3)C2)c(=O)[nH]c1=O (stereo not given)
 : . | -27 | 11 | 16% | . | -13% | 0.5%

Screening results from PubChem.
